StopGo RLuc: Primary qHTS Assay for Foot and Mouth Disease Virus Antivirals against NCGC Sytravon and CBC Compound Libraries: Renilla Luciferase Signal; HEK cells with a luciferase reporter of 2A StopGo recoding; Potency, µM (doses to about 57.5 µM), without a hit: at the top dose signal change, negative = less light; hit rate 0.32% among 120,000; AID 1745857, 2022; active means well fitted falling curve with a large enough effect; inconclusive means small, poorly fitted or top-dose-only effect; inactive means no such curve, though single readings can be large or run the other way; further: nearly all actives have a fitted effect of over 55% in size; overnight with compound
StopGo FLuc: Primary qHTS Assay for Foot and Mouth Disease Virus Antivirals against NCGC Sytravon and CBC Compound Libraries: Firefly Luciferase Signal. HEK cells with a luciferase reporter of 2A StopGo recoding. Potency, µM (titrated, usually from 57.5 µM), without a hit: top-dose signal change, negative = less light. hit rate 0.23% among 120,000. AID 1745856, 2022; active = well fitted falling curve with a large enough effect; inconclusive = small, poorly fitted or top-dose-only effect; inactive = no such curve, though single readings can be large or run the other way; further: nearly all actives have a fitted effect of over 60% in size; overnight with compound
* = called active by the depositor; ? = inconclusive; & = joins results of further samples; [ ] = another dose, or the depositor's remark. On the % scale 0 is the no-effect control and ±100 the full control effect; potency means the concentration at half of the fitted maximal effect.

SMILES	StopGo RLuc	StopGo FLuc
Cc1c(C)c(OC(=O)c2ccccc2)c(Cc2nc3ccccc3s2)c(C)c1O	35.7%[activator][1.06 µM]	?
CC(C)(C)OC(=O)NCc1ccc(C(=O)O)cc1	10.2%	11.0%
N#Cc1nc(-c2ccccc2Cl)oc1N1CCCCC1	37.6%[activator]	119.9%[activator]
Cc1cccc(-c2cccc3c4c([nH]c23)[C@@H]2C[C@H](N(C)C(=O)NC3CCCCC3)[C@H]([C@H](C)O)C(=O)N2CC4)c1	35.5%[activator]	-19.1%
O=C(Nc1ccc(Cc2ccncc2)cc1)c1ccc(Br)cc1	?	?
Cc1ccc(CCC(=O)Nc2cnc3ccccc3c2)cc1	-9.5%	48.7%[activator]
CN[C@H]1C[C@H]2c3cc(-c4ccc5c(c4)OCO5)ccc3CCN2C[C@H]1[C@H](C)O	-8.0%	-3.9%
N#CCCn1cc(C(=O)CSc2ncc(C(F)(F)F)cc2Cl)c2ccccc21	-7.6%[1.06 µM]	?
CCOC(=O)Cc1ccc(NC(=O)Nc2nnc(N3CCCC(C)C3)s2)cc1 (centres undefined)	-4.8%	4.6%
CCCCn1c(N)c(N(CCOC)C(=O)c2cc3c(s2)CCC(C)C3)c(=O)[nH]c1=O (centres undefined)	24.8%	46.8%[activator]
COc1ccc(C)cc1NC(=O)c1ccccc1OCC(N)=O	-6.4%	3.7%
CCNS(=O)(=O)c1ccc2c(c1)NC(=O)C(C)CS2 (centres undefined)	64.4%[activator]	7.6%
Cc1ccc2nc(CN3CCN(C(=O)Nc4cccc(C)c4C)CC3)oc2c1	-16.3%	-9.9%
COc1ccc(OC)c(-n2cnc3cc(C(=O)NC4CCCCCC4)ccc32)c1	100.1%[activator]	16.2%
O=C(Nc1nnc(-c2ccc(F)cc2)s1)C(=O)c1c[nH]c2ccccc12	-6.2%	15.5%
CCCCc1ccc(NC(=O)CSc2nc(=O)[nH]c3c2CCCC3)cc1	-12.5%&-2.3%	1.7%&-11.0%
Cc1nc(CN2CCN(S(=O)(=O)c3ccc(Cl)cc3)CC2)cs1	-4.7%	-2.4%
CC(C)OC(=O)OCOP(=O)(CO[C@H](C)Cn1cnc2c(N)ncnc21)OCOC(=O)OC(C)C	-8.6%	14.2%[11.5 µM]
CN(CC(=O)Nc1ccccc1OC(F)F)S(=O)(=O)c1ccc(Cl)cc1	5.9%	-1.6%
COc1ccc(-c2csc(-c3nc(-c4ccc(Br)s4)cs3)n2)cc1F	-10.0%	-1.7%
CCCn1c(CCC(=O)Nc2cccc(CC)c2)nc2cccnc21	-10.3%	3.0%
Cc1ccc(-c2c(C#N)c(N)nc3c2CCCC3)cc1	-4.3%	-6.4%
O=C(O)CC1CC(=O)OC1=O (centres undefined)	-2.7%	6.6%
O=C1CC2(C(=O)Nc3cc(F)ccc32)c2sc(C(=O)O)c(-c3ccccc3)c2N1 (centres undefined)	-7.0%	6.8%
CC(C(=O)N1CCOCC1)n1ccc2cc(S(=O)(=O)N3CCCC3)ccc21 (centres undefined)	-2.9%	-1.5%

(cont.)
SMILES	StopGo RLuc	StopGo FLuc
O=C(NC(C1CC1)C1CC1)c1ccnc(Cl)c1	1.8%	-2.1%
Cc1ccc2c(c1)N(C(=O)N1CCC(C(=O)Nc3cccc(F)c3)CC1)CCO2	-12.3%&-10.2%	-21.2%&-17.1%
CSCC(=O)NCCc1cccs1	1.4%	0.0%
COC(=O)CN1C(=O)CSc2ccc(S(=O)(=O)Nc3ccc(C)c(Cl)c3)cc21	226.9%[activator]	-13.5%
Cc1ccc(-n2nnnc2SCC(=O)Nc2ccc3nccnc3c2)c(C)c1	7.2%	21.6%
Cc1cc(Cl)ccc1NC(=O)c1ccc(NC(=O)C2=CSCCO2)cc1	-29.1%	-0.2%
Cc1ccc(CNS(=O)(=O)c2cc3[nH]c(=O)c(=O)[nH]c3cc2C)cc1	-4.6%	-6.6%
Cn1nc(C(=O)OC/C(O)=C(/C#N)c2nc3ccccc3[nH]2)c2ccccc2c1=O	-2.2%	36.6%[activator]
CCOC(=O)c1oc2nc(C)c3c(c2c1N)CC(C)(C)OC3	-3.1%	5.4%
CCc1ccsc1C(=O)N(CC#N)C1CC1	-8.9%	9.4%
COc1ccc(C(=O)/C=C/c2cn(CC(O)CN(CC(C)C)CC(C)C)c3ccccc23)cc1 (centres undefined)	-15.5%	-2.2%
CCC(C)NC(=O)Cn1c(=O)n(-c2ccc(Cl)cc2)c(=O)c2c3c(sc21)CCCC3 (centres undefined)	-4.8%	-19.1%
COc1ccc(N2CC(NC(=O)c3ccc(OC(C)C)cc3)CC2=O)cc1 (centres undefined)	-8.7%	-8.5%
Cn1c(=O)n(C)c2cc(Sc3ccccc3Cl)c(NS(C)(=O)=O)cc21	29.7%	25.6%
CCCN(C(=O)c1ccc2c(=O)n3c(nc2c1)CCCC3)c1ccc(OCC)cc1	54.6%[activator]	0.0%
Cc1nc2nc(CNC(=O)OC(C)(C)C)nn2c(C)c1CCC(=O)NCc1ccc(F)cc1	-2.1%	-11.0%
COc1ccc(SCCCCO)cc1	6.6%	68.0%[activator]
COc1ccc(OC)c(CN2CCN(C(=O)c3cc4c(s3)CCCCC4)CC2)c1	-12.4%	2.2%
Cc1noc(-c2ccccc2NC(=O)c2ccncc2)n1	-8.3%	-7.8%
Cc1cc(C)cc(N(CCC#N)C(=O)CN(C)CC(=O)Nc2ccccc2Cl)c1	54.3%[activator]	6.2%
O=C(CSc1cnc2cc(S(=O)(=O)N3CCCCC3)ccc2n1)Nc1ccc(Cl)cc1	5.1%	15.2%
CN(C)C(=O)C(CCN1CCC(O)(c2ccc(Cl)cc2)CC1)(c1ccccc1)c1ccccc1	-1.8%	7.7%[11.5 µM]
CCCCCn1nc(C(=O)NCC(=O)Nc2cccc(C)c2C)c2ccccc2c1=O	10.9%	-12.1%
COc1ccc(CCn2cc3c(c2-c2ccccc2Br)c(=O)n(C)c(=O)n3C)cc1OC	?	-14.9%
CCN1CCN(Cc2c(O)ccc3c(C)c(-c4ccccc4)c(=O)oc23)CC1	-9.4%	-13.5%

The list goes on:
SMILES	StopGo RLuc	StopGo FLuc
COc1cc(NC(=O)CCc2c(C)nc3cc(-c4ccccc4)nn3c2C)cc(OC)c1OC	-1.5%	?
COc1cc(OC)cc(-n2c(=O)c3ccccc3n(CC(=O)NCCc3ccc(OC)c(OC)c3)c2=O)c1	-9.0%	-12.8%
CC(C)(C)C(=O)/C(C#N)=C\c1cccc(F)c1	9.0%	14.2%
Cc1[nH]c2ccccc2c1C(=O)/C(C#N)=C\c1c(Cl)cccc1Cl	?	?
N#CCCn1cc(C(=O)CN2C(=O)C(=O)N(C3CCCC3)C2=O)c2ccccc21	-4.6%	-4.5%
Cc1ccc(N(CC(=O)N2CCN(C(c3ccccc3)c3ccccc3)CC2)S(C)(=O)=O)cc1	-0.1%	-5.2%
Cc1cc(C)cc(OCCn2c(CCNC(=O)C3CCCCC3)nc3ccccc32)c1	-13.0%	-13.4%
CCn1nc(C(=O)Nc2ccc(OC)c(OC)c2)c2ccccc2c1=O	7.7%	16.9%
Cc1cccc(-n2c(C)cc(C(=O)C(=O)Nc3nncs3)c2C)c1	4.6%	12.4%
Cc1cc(C)c2c(CC(=O)Nc3c(C(=O)Nc4ccc(Cl)cc4)oc4ccccc34)coc2c1	-12.4%	33.9%[activator]
COc1ccc(-c2nc3sc(CCNC(=O)C(=O)Nc4cc(F)ccc4F)c(C)n3n2)cc1	-16.2%	-11.0%
COCCNC(=O)c1cc(-c2ccc3c(c2)OCCO3)nc2ccccc12	26.7%	77.9%[activator]
CCNC(=O)c1cc(-c2cccs2)nc2ccccc12	12.1%	12.1%
CC(C)c1ccc2c(c1)NC(c1ccncc1)=NC(c1cccs1)=N2	?	106.2%[activator]
Cc1cc(-n2cccc2)ccc1Br	-8.1%	2.0%
O=C(Cn1nnc(-c2ccc(F)cc2)n1)N1N=C(c2cccs2)CC1c1cccs1 (centres undefined)	-9.3%	-1.0%
Fc1ccc(-c2csc3ncnc(Sc4nnc(C5CC5)o4)c23)cc1	?	?
CC(C)N(C)S(=O)(=O)N(C)CC1COc2ccccc2O1 (centres undefined)	-2.6%	1.9%
NS(=O)(=O)c1ccc(N/N=C/c2ccc(Cl)cc2)c([N+](=O)[O-])c1	-5.1%	0.0%
COc1ccc(CNC(=O)Nn2cnc3ccccc32)cc1OC	-5.2%	18.9%
Cc1cc(C)c(NC(=O)CN2C(=O)c3cccnc3Sc3ccccc32)c(C)c1	6.9%	69.0%[activator]
CCOC(=O)c1cc2c(=O)n3ccccc3nc2n(Cc2ccco2)c1=NC(=O)c1cccc(C)c1	0.0%	20.5%
COc1ccc(C(CNC(=O)CCc2nnc(-c3ccsc3)o2)N(C)C)cc1 (centres undefined)	-7.5%	97.9%[activator]
C=C(C)CSc1nc2sc3c(c2c(=O)n1CCCC)CCCC3	-7.5%	-10.3%
CC(C)(C)NC(=O)CC1(C(=O)NCC2(c3ccccc3)CC2)CCCC1	13.8%	4.0%

Next section.
SMILES	StopGo RLuc	StopGo FLuc
Cc1cc(CSc2ncccc2C(=O)Nc2ccnn2Cc2ccccn2)no1	22.7%	24.6%
CCOc1ccccc1NC(=O)COC(=O)c1oc2ccc(Br)cc2c1C	0.7%	2.1%
CCOC(=O)c1ccc(NC(=O)CCc2c(C)nc3c(c(C)nn3C(C)(C)C)c2C)cc1	?	-6.0%
O=C(COC(=O)c1ccccc1OCc1ccccc1)Nc1ccc(F)cc1	-2.7%	8.3%
O=C(/C=C/c1cc(Cl)cc(Cl)c1)NC1CCC(O)CC1 (centres undefined)	6.0%	11.9%
CCOc1ccc(-c2cc(C(=O)O)c3ccccc3n2)cc1OCC	20µM*	-10.2%
CCc1ccc(NC(=O)CC2C(=O)N(c3ccc(OC)cc3)C(=O)N2Cc2ccc(OC)cc2)cc1 (centres undefined)	19.3%	12.9%
CC(Sc1nnc(CCC(N)=O)n1C1CC1)C(=O)c1c[nH]c2ccccc12 (centres undefined)	-6.1%	0.7%
O=C(N/N=C/c1cccs1)c1ccccc1Br	16.4%	0.0%
COc1ccc(OC)c(C(=O)NC2CCCC2)c1	18.5%	0.0%
O=C(COc1ccccc1Cl)N1CCN(CCc2ccncc2)CC1	-10.5%	-20.7%
N#C/C(=C/c1ccccc1C=O)c1nc2ccccc2s1	89.4%[activator]	58.0%[activator]
CC(C)C(=O)NCC(C)(C)CNC(=O)C(C)C	5.5%	-3.5%
Cc1ncsc1C(=O)/C=C/c1ccc(F)c(F)c1	?	?
CC(=O)c1ccc(NS(=O)(=O)c2cccc(S(=O)(=O)c3ccc(Cl)cc3)c2)cc1	53.4%[activator]	47.7%[activator]
CN1C(=O)Cc2cc(S(=O)(=O)CCC(=O)Nc3cccc(C(F)(F)F)c3)ccc21	-21.4%	-15.2%

Only part of the results is shown. The share of hits here may be higher or lower than overall.
